# Bioassay records deposited in PubChem by National Center for Advancing Translational Sciences (NCATS).
# Cruzain inh Det: inhibitors of Trypanosoma cruzi cruzain with detergent; purified cruzain, Z-FR-AMC fluorescence, 0.01% Triton; Potency, µM, without a hit: max response, negative = inhibition, most hits filed as inhibitors; 0.43% of 200,000 active; AID 1478; P25779;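 also: plate controls were neutral wells for no effect and buffer without enzyme for full effect; nearly all actives have a fitted effect of over 40% in size; top concentration of the series not given in the record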
# Target sequence (P25779 123-467 limits assumed): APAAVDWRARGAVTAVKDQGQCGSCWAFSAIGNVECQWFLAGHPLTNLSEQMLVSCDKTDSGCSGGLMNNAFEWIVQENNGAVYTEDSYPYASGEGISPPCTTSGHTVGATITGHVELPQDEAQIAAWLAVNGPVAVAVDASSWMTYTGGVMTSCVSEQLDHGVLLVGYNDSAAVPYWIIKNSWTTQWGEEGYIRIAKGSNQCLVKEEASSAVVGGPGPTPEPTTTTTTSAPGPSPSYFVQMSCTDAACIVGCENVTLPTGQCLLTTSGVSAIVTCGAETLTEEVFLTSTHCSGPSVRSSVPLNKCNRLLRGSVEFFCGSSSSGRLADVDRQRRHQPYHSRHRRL
#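 Read-out: AMC fluorescence (360 nm excitation, 450 nm emission), four reads over 2 min, first-to-third difference used. Conditions: cruzain 1.5 nM, Z-FR-AMC 2 uM, pH 5.5 acetate, 5 mM DTT, 0.01% Triton X-100.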
# Cruzain inh noDet: inhibitors of Trypanosoma cruzi cruzain without detergent; Potency, µM, for the others: max response, negative = inhibition, hits mostly inhibitors; purified cruzain, Z-FR-AMC fluorescence, no detergent; 2.3% of 200,000 active; P25779; AID 1476;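 also: plate controls were enzyme without inhibitor for no effect and buffer without enzyme for full effect; nearly all actives have a fitted effect of over 40% in size; top concentration of the series not given in the record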
#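 Detergent-free condition (0.00005% Triton X-100) in acetate buffer pH 5.5 with DTT. 1.5 nM enzyme and compound were pre-mixed 15 min, then 2 uM Z-FR-AMC substrate added; reaction progress from fluorescence change between first and third reads (60 s).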
# RE007 growth inh: less growth of the S. pombe RE007 Vpr strain; S. pombe RE007 Vpr strain, BacTiter-Glo ATP luminescence, 24 h; control for the full effect not named in the record; Potency, µM (series often up to 92.2 µM), without a hit: at the top dose activity change, negative = less growth; 0.21% of 360,000 active; active = well fitted falling curve with a large enough effect; inconclusive = small, poorly fitted or top-dose-only effect; inactive = no such curve, though single readings can be large or run the other way;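 also: % is scaled to controls: 0 for no effect and ±100 for the full control effect; nearly all actives have a fitted effect of over 50% in size; the assay follows cell death caused by Vpr and the record does not say whether a fall means rescue or toxicity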
#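 Fission yeast strain RE007, carrying one chromosomally integrated HIV-1 vpr copy, was seeded at OD 0.01 in PMG+AL medium with 23 nL pinned compound. After 24 h at 30 °C and 99% humidity, viability was read by BacTiter-Glo luminescence.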
# Marburg entry inh: blocks Marburg virus binding to or entry into cells. Marburg virus pseudotyped entry inhibition, cell reporter; control for the full effect not named in the record; about a third of the inactives were read at about 46 µM. Potency, µM (titrated, usually from 37.8 µM), inactives show top-dose activity change, negative = inhibition, actives largely listed as inhibitors. 1.8% of 300,000 active. AID 540276; active = well fitted inhibition curve with a large enough effect; inconclusive = small, poorly fitted or top-dose-only effect, or effect the other way; inactive = flat fitted curve, though single readings scatter; tested in HEK293 cells; about a fifth of its hits are not listed in these tables; also: % is scaled to controls: 0 for no effect and ±100 for the full control effect; luciferase read-out
# SARS PLP yeast: blocks SARS-CoV papain-like protease in a yeast assay; 0.19% of 330,000 active; AID 485353; Potency, µM (highest dose often 32.9 µM), for inactives: at the highest dose activity, positive = growth rescue; S. cerevisiae expressing SARS-CoV PLpro, growth rescue; control for the full effect not named in the record; active means well fitted rising curve with a large enough effect; inconclusive means small, poorly fitted or top-dose-only effect; inactive means no such curve, though single readings can be large or run the other way; also: 0% is about no effect; nearly all actives have a fitted effect of over 55% in size; growth read by luminescence after 48 h
# StopGo reporter: FMDV 2A StopGo reporter, luciferase signal | human cells with a luciferase reporter of 2A StopGo recoding; control for the full effect not named in the record | Potency, µM (top dose mostly 57.9 µM), for inactives: at the highest dose signal change, negative = less light | 1.2% of 410,000 active; active = well fitted falling curve with a large enough effect; inconclusive = small, poorly fitted or top-dose-only effect; inactive = no such curve, though single readings can be large or run the other way; tested in HEK293T cells; also: % is scaled to controls: 0 for no effect and ±100 for the full control effect; nearly all actives have a fitted effect of over 45% in size; luciferase light after 4 h
# NS1 function inh: influenza NS1 inhibition | Potency, µM (highest dose often 46.1 µM), without a hit: at the top dose activity, positive = more growth | 0.4% of 270,000 active | AID 2326 | S. cerevisiae slowed by influenza A NS1, growth recovery by OD600; active means well fitted rising curve with a large enough effect; inconclusive means small, poorly fitted or top-dose-only effect; inactive means no such curve, though single readings can be large or run the other way; also: nearly all actives have a fitted effect of over 50% in size
#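 Compounds were scored for reversing the slow growth caused by influenza A NS1 in S. cerevisiae, measured by optical density at 600 nm. Assay medium contained 2% galactose at pH 6.0; NS1-free yeast of the same strain were the positive control.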
# LASV entry inh: blocks Lassa virus binding to or entry into cells | Lassa virus pseudotype entry inhibition, cell reporter; control for the full effect not named in the record | Potency, µM (top dose mostly 37.9 µM), for inactives: top-dose activity change, negative = inhibition, usual class: inhibitors | 1.2% of 300,000 active | AID 540256; active means well fitted inhibition curve with a large enough effect; inconclusive means small, poorly fitted or top-dose-only effect, or effect the other way; inactive means flat fitted curve, though single readings scatter; tested in HEK293 cells; also: % is scaled to controls: 0 for no effect and ±100 for the full control effect; nearly all actives have a fitted effect of over 50% in size; luciferase read-out
# Starred values were filed as active, the others as inactive; ? = inconclusive; / = not tested or not shown; & = joins results of further samples; [ ] = remark or other dose. Unless noted, calls follow the shape of the dose curve; as a rule, active = well fitted curve in the direction sought with a large enough effect; inconclusive = small, poorly fitted or top-dose-only effect, or another doubt; inactive = no such curve, though single readings can be large; an effect the other way counts as inactive or inconclusive. Potency is read from the fitted curve at half-maximal effect.
SMILES,Cruzain inh Det,Cruzain inh noDet,RE007 growth inh,Marburg entry inh,SARS PLP yeast,StopGo reporter,NS1 function inh,LASV entry inh
Cc1sc2nc(N3CCOCC3)[nH]c(=O)c2c1-c1ccccc1,-1.3%,-4%,1%,3%,6%,-15%,-1%,8%
CCCNC(=O)NC1C(NC(=O)NCCC)N(C)C(=O)N1C (configuration not stated),4.2%,-5%,1%,19%,2%,7%,7%,1%
CCc1cccc(CC)c1NC(=O)c1ccc(-n2cncn2)nc1,/,/,9%,9%,0%,-23%,4%,?
O=C(Cn1c(=O)oc2cc(S(=O)(=O)N3CCCCCC3)ccc21)Nc1ccc(F)cc1F,-6.4%,?,/,?,/,-18%,/,7%[46.1 µM]
CCCCn1c(SCc2nc3ccccc3s2)nc2ccccc2c1=O,-4.7%,-3%,4%,-1%,-14%,?,6%,12%
CCCCN(C)Cc1c(C)[nH]c2ccc(C)cc2c1=O,1.0%,-5%,-18%[3.69 µM],-6%,5%,-14%,4%,10%
CC(C)CN(CC(C)C)C(=O)CS(=O)(=O)Cc1ccccc1,-1.8%,-3%,2%,2%,6%,/,15%,20%
COC(=O)C1CCN(C(=O)Cc2ccccc2OC)CC1,/,/,-9%,5%[46.1 µM],1%,17%,/,-4%
COc1ccc(C2C(C(=O)N3CCOCC3)=C(C)NC3=C2C(=O)CC(C)(C)C3)cc1O (configuration not stated),0.1%,-4%,10%,10%,3%,9%,8%,-9%
CSc1ccc(C2NC(=O)c3ccccc3N2)cc1 (configuration not stated),/,/,6%,?,/,46%[activator],/,-12%[46.1 µM]
COc1ccc(-c2oc(NC(=O)CCl)c(C#N)c2-c2ccc(OC)cc2)cc1,-12%,-24%,-10%,?,5%,?,4%,?
CN(C)S(=O)(=O)Oc1ccccc1C(=O)Nc1cccc(C(F)(F)F)c1,-2.7%,-10%,-3%,-7%,0%,-21%,-7%,0%
COc1cc(NC(=S)N2CCOCC2)c(OC)cc1Cl,/,/,10%,/,0%,-4%,1%,/
CC(C)NC(=S)N1CCN(Cc2ccc3c(c2)OCO3)CC1,/,/,-8%,3%[46.1 µM],1%,-15%,-2%,25%
O=C(CN1CCN(CC(=O)Nc2ccc(OCc3ccccc3)cc2)CC1)Nc1ccc(F)cc1,/,/,15%,-45%,/,-12%,/,-31%[14.3 µM]
O=C(CSc1ccccc1)Nc1nnc(C2CC2)s1,/,/,5%,?,1%,0%,2%,?
COc1ccccc1-c1n[nH]c(=S)n1Cc1ccccc1,/,/,-8%,/,5%,-17%,12%,/
CCCOc1ccc(CCc2n[nH]c(=S)n2-c2ccccc2)cc1,/,/,-2%,?,5%,-23%,3%,?
Clc1cccc(-n2ncc3c(N4CCCCCC4)ncnc32)c1,0.3%,27%,/,/,/,-17%,/,?
Cc1cc(C)c2c(N)c(-c3nnc(SCc4ccc(Cl)cc4)n3C)sc2n1,/,/,4%,-5%&-5%,0%,-15%,3%,11%
C/C(=N\N=C(N)N)c1ccccc1,/,/,4%,?,1%,-6%,6%,7%
N#C/C(=C\c1ccc(OCc2ccccc2)cc1)C(=O)Nc1nc2c(s1)CCN(Cc1ccccc1)C2,1.2%,?,-16%,?,-21%,-18%,-20%,11%
COc1cc2ncc3c(-c4ccc(C)cc4)nn(-c4ccc(F)cc4F)c3c2cc1OC,0.0%,11%,/,/,/,-22%,/,-9%[46.1 µM]
CC(C(=O)Nc1ccccn1)N1C(=O)C2C3C=CC(C3)C2C1=O (configuration not stated),5.3%,5%,-2%,3%,2%,10%,6%,?
O=C(NC1CCCc2ccccc21)c1ccc([N+](=O)[O-])cc1 (configuration not stated),/,/,17%,?,-2%,-3%,4%,-6%
Cc1ccc(-c2cc(C(=O)Nc3cccc(S(=O)(=O)N(C)C)c3)c3ccccc3n2)o1,/,/,-11%,?,-1%,-20%,-1%,-24%
COc1ccc(NS(=O)(=O)c2ccc(N3CCOCC3)c(NC(=O)C(C)C)c2)cc1,/,/,-11%,?,2%,-3%,/,-28%
CC(=O)NC1C(=O)N=C(SCC(=O)NC(C)c2ccccc2)NC1=O (configuration not stated),-0.8%,-2%,-8%,10%,-3%,-13%,?,3%
O=C(NCc1ccccc1)NC(=O)c1ccc(Cl)cc1,/,/,-4%,?,/,31%[activator],/,-1%[46.1 µM]
CC1CCN(C(=O)C2CCN(c3ncnc4c3nc3n4CCCCC3)CC2)CC1,/,/,15%,/,-4%,?,-18%,/
O=C1c2ccccc2C(=O)N1CCC(c1ccc(F)cc1)c1ccco1 (configuration not stated),?,?,-16%,-6%,-18%,-13%,-57%,-1%
COCCCN(C(=O)Cc1ccc(Cl)c(Cl)c1)c1c(N)n(Cc2ccccc2)c(=O)[nH]c1=O,/,/,1%,/,1%,13%,9%,/
CCOc1ccc(Oc2c(/C=N/NC(=O)COc3ccccc3OC)c(C)nn2-c2ccccc2)cc1,-6.5%,14%,19%,?,1%,-29%,21%,?
COc1ccc(N2C(=O)NC(=O)C(CCc3ccncc3)(CCc3ccncc3)C2=O)cc1,2.1%,2%,-9%,-4%,-14%,/,-1%,?
O=C(COc1ccc(Br)cc1CO)Nc1ccc(S(=O)(=O)N2CCCC2)cc1,/,/,-10%,?,4%,35µM*,/,0%
O=c1[nH]c2ccc(S(=O)(=O)Nc3ccc(Cl)cc3)cc2[nH]1,/,/,-9%,/,-5%,19%,-56%,/
COc1cccc(/C=C/C(=O)OCC(=O)NCC2CCCO2)c1 (configuration not stated),-2.2%,-1%,-18%,19%,1%,-2%,-7%,7%
CCCCCn1c(CNC(=O)COC)nc2ccccc21,0.3%,-14%,-9%,5%,0%,-23%,-1%,-6%
Cc1ccsc1-c1nc(-c2ccccc2)c(-c2ccccc2)[nH]1,4.4%,-13%,0%,-23%,-1%,-18%,8%,1%
CCN(CC)S(=O)(=O)c1ccc2c(c1)nc(CCC(=O)OCC(=O)N1CCc3ccccc31)n2C,-0.5%,?,-8%,-2%,1%,-18%,13%,5%
COc1ccc([N+](=O)[O-])cc1N=Cc1c(O)n(CCc2ccccc2)c(=O)n(C(C)C)c1=O,-7.4%,-13%,-23%,-24%[46.1 µM],11%,?,14%,-7%
CC1CC1C(=O)OCC(=O)NCc1ccccc1Cl (configuration not stated),2.6%,12%,28%,14%,1%,36%[activator],4%,?
O=C(Cc1ccccc1)N/N=C/c1ccc2cccc(O)c2n1,/,/,-17%,-3%[46.1 µM],-3%,41%[activator],-5%,?
CCN(Cc1ccccc1)C(c1ccc(Cl)cc1)c1nnnn1C(C)(C)C (configuration not stated),-5.1%,-1%,17%,?,-7%,?,4%,?
Cc1ccc(S(=O)(=O)Nc2cccc(-n3cnnn3)c2)cc1C(=O)O,/,/,10%,/,?,2%,-5%,/
Cc1nc(-c2ccc(Cl)cc2)sc1C(=O)NNC(=O)C(C)C,/,/,-18%,10%[46.1 µM],-2%,-10%,-4%,6%[46.1 µM]
Cc1ccccc1CCNC(=O)c1ccc2c(c1)nc1n2CCOC1,1.2%,-7%,/,/,/,-26%,/,?
CCCCn1c(N)c(N(CC(C)C)C(=O)c2ccc(Br)s2)c(=O)[nH]c1=O,/,/,1%,21%,-2%,-14%,-5%,?
O=C1NC2(CCCCCC2)C(=O)N1Cc1cccc(Cl)c1,/,/,-26%,-23%[46.1 µM],0%,?,-5%,10%[46.1 µM]
COc1cc(CC(=O)OCC(=O)c2ccc(F)cc2)cc(OC)c1OC,/,/,4%,11%,5%,1%,/,?
COc1ccc(-c2nnc3ccc(SCc4ccccc4)nn23)cc1,/,/,-2%,/,0%,-27%,9%,/
O=C(CSc1nnc(COc2cccc3ccccc23)o1)N1CCN(C(=O)c2ccco2)CC1,-0.9%,?,3%,14%,-6%,/,-33%,1%
CC#CCCc1nc2ccccc2c(=O)n1N,-0.9%,-12%,-6%,0%,13%,-16%,0%,0%
CCC1CCCCN1CC(=O)N1CCCc2c1c(=O)oc1ccc(OCc3ccccc3)cc21 (configuration not stated),-7.5%,0%,/,?,/,-18%,/,-26%[46.1 µM]
COc1ccc(CCNC(=O)Cn2nc(C)n3c(cc4cc(F)ccc43)c2=O)cc1OC,1.1%,5%,/,-2%[46.1 µM],/,-16%,/,/
C#CC(=O)N(c1cc(OC)ccc1OC)C(C(=O)NC1CCCC1)c1cccs1 (configuration not stated),-10%,-27%,-8%,2µM*,-10%,?,0%,3.5µM*
CN(Cc1ccccc1)C(=O)Cn1c(=O)c2cccn2c2ccc(F)cc21,-2.4%,1%,/,/,/,2%,/,10%[46.1 µM]
CCc1ccccc1NC(=O)Cn1nc(C(F)(F)F)c2c1CCC2,-2.3%&-2.1%,-7%&-8%,-1%,?,14%,-12%&-1%,-6%,-2%[46.1 µM]
CCOc1cc(NC(=S)NCCOC)c(OCC)cc1NC(=O)c1ccco1,/,/,0%,-17%,13%,-3%,3%,-30%[46.1 µM]
C#CCn1c(O)c(N=NC(=O)CNC(=O)/C=C/c2ccccc2)c2ccccc21,/,/,-6%,15%[46.1 µM],2%,-7%,5%,?
# Additional compounds:
SMILES,Cruzain inh Det,Cruzain inh noDet,RE007 growth inh,Marburg entry inh,SARS PLP yeast,StopGo reporter,NS1 function inh,LASV entry inh
CCc1ccc(NC(=O)CSc2nnc(-c3n[nH]c4ccccc34)n2-c2ccccc2)cc1,-2.7%,-14%,12%,?,-5%,?,14%,-4%
CCOC(=O)CNC(=O)Nc1cc(C(C)(C)C)nn1-c1ccccc1,2.8%,6%,1%,-2%,1%,-12%,-10%,8%
CN(C)C(=S)c1ccc2ccccc2n1,-2.6%,-3%,0%,11%,3%,11%,1%,4%
COc1cccc(/C=N/NC(=O)C(C)Sc2ccccc2)c1 (configuration not stated),/,/,-23%,11%[46.1 µM],0%,-21%,-10%,-18%
O=c1c2cccnc2n(-c2ccccc2)n1Cc1ccc(Cl)cc1,/,/,11%,18%[46.1 µM],1%,4%,/,12%
Cc1ccc2cc(CN(Cc3ccc4c(c3)OCO4)Cc3nnnn3Cc3ccco3)c(=O)[nH]c2c1,-10%,-3%,-8%,?,0%,1%,13%,?
O=C(COC(=O)c1cc2c(s1)CCCC2)NCc1ccccc1Cl,-4.5%,-2%,-6%,9%,-4%,-14%,4%,-23%
